# From PubChem BioAssay
# CapD inh: CapD enzyme inhibition | purified CapD enzyme, fluorescence intensity read-out; active compounds read low; some hits fall short of the stated cut | z-score (no concentration beside the values) | 140,000 compounds, 0.23% hits | AID 492967;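 active = z-score under -4 in either of two replicates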;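 also: stock transfer was 100 nL into about 40 µL; score is relative to mean and spread of the plate; one replicate is shown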
# AID504770: E. coli YBA685 growth inhibition, screen for V. cholerae RctB inhibitors | AID 504770 | 130,000 compounds, 0.27% hits | z-score (test concentration not listed) | E. coli YBA685 rctB-dependent plasmid, OD600 growth, 3 h; active compounds read low;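 active = z-score under -2 on both plates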;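 also: wells of about 30 µL received 100 nL stock; score is relative to mean and SD of the test wells; the first replicate is given; strong numbers were not always called active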
# Active calls of the source: *; / = no result given. Some of the compounds tested, so the mix of outcomes need not match the whole.
# The first 5 entries as a preview:
SMILES,CapD inh,AID504770
CN(CCNc1nc(-c2ccccc2)no1)C1CCCCC1,-0.075,0.35
CCOC(=O)N1CCN(C(=O)c2ccc3c(=O)n(CCc4ccccc4)c(SCC(=O)C(C)(C)C)nc3c2)CC1,0.09,/
O=C(Cn1cnc2ccccc2c1=O)N1CCCc2ccccc21,/,1.4
O=C(O)c1ccc(N2CCOc3ccccc32)s1,2.4,1.2
Nc1cccc2ncccc12,/,0.2

# This part in full (from the top)
SMILES,CapD inh,AID504770
CN(CCNc1nc(-c2ccccc2)no1)C1CCCCC1,-0.075,0.35
CCOC(=O)N1CCN(C(=O)c2ccc3c(=O)n(CCc4ccccc4)c(SCC(=O)C(C)(C)C)nc3c2)CC1,0.09,/
O=C(Cn1cnc2ccccc2c1=O)N1CCCc2ccccc21,/,1.4
O=C(O)c1ccc(N2CCOc3ccccc32)s1,2.4,1.2
Nc1cccc2ncccc12,/,0.2
CC(=O)N(c1ccc2oc3c(c2c1)CCCC3)S(=O)(=O)c1ccc(F)cc1,0.32,-0.1
Cc1nn(Cc2c(F)c(F)c(F)c(F)c2F)c(C)c1NC(=S)NCc1ccco1,0.16,-0.6
Cc1ccc(-c2ccc(OCC(=O)NC3CCCC3)cc2)cc1,0.45,0.85
CC(C)NC(=O)Cn1ncn2c(cc3ccccc32)c1=O,5,-1.1
CC(C)(Oc1ccc(Cl)cc1)C(=O)NCc1ccc2c(c1)OCO2,-0.34,0.75
Cn1c(=S)n(CN2CCC(C(N)=O)CC2)c2ccccc21,0.27,-0.75
CCO/C=C1/SC(=S)N(CCc2ccc(Cl)cc2)C1=O,-2.1,-0.9
O=C1S/C(=C2\C(=O)N(Cc3ccccc3)c3ccccc32)C(=O)N1Cc1ccccc1,-0.1,/
O=C(NCc1cc(F)cc2c1OCOC2)C1CC1,0.21,-0.15
Cc1cc(C)cc(N2C(=O)CC(c3ccc4c(c3)OCO4)C3=C2CCCC3=O)c1 (centres undefined),/,-0.5
COc1ccnc(Oc2ccc(F)cc2)c1C(=O)N/C=N/OCc1ccccc1,-0.23,/
CN1CCN(C(=O)CCCCl)CC1,-0.26,0
CCOc1ccc(N(CC(=O)Nc2ccccc2C(=O)OC)S(=O)(=O)c2ccc(Cl)cc2)cc1,-0.2,/
Cc1c(CN(C)C)c2c(n1Cc1ccccc1)C(=O)c1ccc(Br)cc1-2,-1,-0.6
CCCCCCCCc1ccc(C(=O)O)cc1,0.41,/
CC(=O)Nc1cccc(NC(=O)N2CCOCC2)c1,0.085,1.3
CCN1CCN(C2=NC(C(=O)Nc3ccccc3)CC(=O)N2)CC1 (centres undefined),/,1.6
CC(O)(CN1CCOCC1)c1ccc(Br)cc1 (centres undefined),0.09,-0.45
Cn1c(S(=O)(=O)Cc2ccc(Br)cc2)nc2ccccc21,-0.045,2
N#Cc1c(N)nc2c(sc3nc4c(cc32)CCC4)c1-c1ccc(Br)cc1,6.7,0.25
O=c1c(-c2ccc3c(c2)OCCCO3)coc2cc(O)cc(O)c12,-1.3,0.65
Cc1ccc(-c2nc(-c3ccc(NC(=O)c4cccc(Cl)c4)cc3)no2)cc1[N+](=O)[O-],-0.59,/
Cc1ccc(Cn2c(=N)n(CC(=O)O)c3ccccc32)cc1,-0.18,-0.2
CSCCC(C(=O)O)N1C(=O)/C(=C/c2ccc(O)cc2)SC1=S (centres undefined),-4*,0.15
O=C(O)c1cc2cc3ccccc3nc2s1,/,-0.15
O=c1cc(NCc2ccccc2)[nH]nc1-c1ccccc1,1.1,-0.5
COc1ccc(-c2c(C#N)c(N)n3c(nc4ccccc43)c2C#N)cc1O,-0.05,/
CON/C=C(\C=Nc1ccc(OC)cc1)c1ncc(C(F)(F)F)cc1Cl,-2.8,/
CC(C)Cc1ccc(C(C)c2nc3ccccc3n2C)cc1 (centres undefined),-0.07,0.45
S=c1n(CN2CCCCC2)nc(-c2ccccc2)n1-c1ccccc1,0.9,0
CCCn1cnc2c(cnn2-c2ccccc2C)c1=O,/,0.35
COc1cc2c(cc1OC)C(C(=O)NC1CCCCCC1)C(c1cccs1)N(C)C2=O (centres undefined),0.36,-0.1
COc1ccc(C2CC(=O)N(C)C3=C2C(=O)CC(C)(C)C3)c(OC)c1 (centres undefined),-0.47,2.5
COc1ccc(C2C3=C(CC(c4ccc(C(F)(F)F)cc4)CC3=O)Nc3ccccc3N2C(=O)CCC(=O)O)cc1 (centres undefined),24,/
O=c1onc(-c2ccc(Cl)cc2)n1Cc1ccc(F)cc1,/,0.05
CCOC(=O)[C@@H](CCc1ccccc1)NC(C)C(=O)N1CCC[C@@H]1C(=O)O (some centres undefined),54,/
CC(=O)Oc1ccc2c(c1)OC(c1ccccc1)CC21CC(C)(C)NC(=O)N1 (centres undefined),-0.3,/
O=C(COCc1cc(-c2ccco2)on1)N1CCCC1,0.38,-0.5
CN(C)C(=O)Oc1cccc(NC(=O)c2ccccc2C(F)(F)F)c1,-0.4,-0.2
O=c1[nH]c2ccccc2o1,/,1.1
COc1ccc(OCC(O)CNS(=O)(=O)c2ccccc2)cc1 (centres undefined),-0.3,-0.35
C=CCN(C1CCCCC1)S(=O)(=O)c1ccc2c(c1)oc(=O)n2C,0.15,-0.15
CC1=C(C(=O)OCCc2ccccc2)C(c2ccc3c(c2)OCO3)C2=C(CC(c3cccs3)CC2=O)N1 (centres undefined),0.64,/
CCOc1ccc(NC(=O)CN2CCN(CC(=O)Nc3ccc(OCC)cc3)CC2)cc1,0.21,0.15
Cc1ccc(C(=O)N/N=C/c2csc([N+](=O)[O-])c2)s1,-0.6,/
COP(=O)(CC(=O)O)c1ccccc1 (centres undefined),0.85,-1.7
Cc1cc2ncc(-c3ccnc(SCCS(=O)(=O)c4ccccc4)n3)c(C)n2n1,3.9,-0.3
O=C1CC(c2ccccc2)CN1C(=O)c1cccnc1 (centres undefined),-0.08,0.15
O=C(Nc1ccccc1)c1ccc(S(=O)(=O)N2CCCC2)cc1,/,-0.55
CCc1ccc(OCC(=O)OCC(=O)N2CCc3ccccc32)cc1,0.36,-0.05
COC(=O)C1=CN(Cc2ccc(OC)cc2)C=C(C(=O)OC)C1c1cc(Br)c(OC)c(OC)c1,26,/
CC(=O)N1CCC(N(Cc2cccnc2)C(=O)Nc2ccc(Cl)cc2)CC1,-0.55,0.7
COc1ccc(C2CC(c3ccccc3)=NN2C(=O)CSc2nnc(-c3cccnc3)n2N)cc1 (centres undefined),/,-0.15
N[C@H](C(=O)O)[C@@H]1CC(Cl)=NO1,1.2,/
C=CCNS(=O)(=O)c1cccc2cc(C(=O)O)c(O)cc12,-1.1,-0.35
# Next entries follow.
SMILES,CapD inh,AID504770
CC12CN3CN(C1)CC(c1ccccc1)(C3)C2=O,-0.04,-0.1
CCc1ccc(S(=O)(=O)N2CCSC2c2ccc(OC)c(OC)c2)cc1 (centres undefined),0.17,/
CN(CC(=O)Nc1cc(C(F)(F)F)ccc1N1CCOCC1)S(=O)(=O)c1ccc(Cl)cc1,/,0.4
c1ccc(Cc2nc3c4c5c(sc4ncn3n2)CCCC5)cc1,-0.87,-0.45
Cc1sc2nc(-c3ccccc3Cl)n(Cc3csc(-c4ccc(Cl)cc4)n3)c(=O)c2c1C,-1,/
CC1CCN(CCCNC(=O)c2ccc(/C=C3\Oc4ccccc4NC3=O)cc2)CC1,0.28,-1.4
CCCN1CCC(NCc2cccc(C(F)(F)F)c2)CC1,0.2,0.4
COc1ccc(CCN(C)c2ccc(S(=O)(=O)N(C(C)C)C(C)C)cn2)cc1OC,/,0.25
O=C(NCCc1ccncc1)NC1CCCCC1,0.61,0.45
O=C(OCCc1ccc2ccccc2c1)N1CCN(c2ccc(C(F)(F)F)cc2)CC1,-1.1,/
Cc1ccc(CN(C)C(=O)Cc2ccc3c(c2)OCCO3)o1,/,0.45
Cc1ncc(CN2CCSCC2)c(CO)c1O,20,0.8
COc1ccccc1C1CCN(C(=O)CC(CC(=O)C2CC2)c2ccc(Br)cc2)CC1 (centres undefined),-0.61,/
CCOC(=O)C1=C(C)N=C2c3ccccc3C(=O)C2C1c1ccc(Br)cc1 (centres undefined),0.39,0.45
Cc1oc(-c2ccccc2Cl)nc1CSCC(=O)NC1CC1,2.8,-1.1
Brc1ccc(NC2=NCCCCC2)cc1,0.015,-0.3
O=C(NCCc1ccccc1)c1ccc(CS(=O)c2cccc(Cl)c2)o1 (centres undefined),-0.23,-0.9
O=C(COC(=O)c1cc(O)c(O)c(O)c1)c1ccc(C2CCCCC2)cc1,/,1.1
CCN(CC)S(=O)(=O)c1ccc(N2CC(C(=O)N3CCOCC3)CC2=O)cc1 (centres undefined),/,0.3
O=c1oc2cc3occ(-c4ccccc4)c3cc2c2c1CCC2,1.9,1.9
O=C(OCC1CCCC1)N1CCC(O)(Cc2ccccc2)CC1,-0.47,/
CN1CCN(CCCNC(=O)c2cn(C)c(=O)c3c2c2ccccc2n3C)CC1,90,0.05
Cc1cc(NC(=O)Cc2cccc(C(F)(F)F)c2)n(-c2ccccn2)n1,0.31,0.7
N#Cc1c(C(F)(F)F)cc(-c2cccs2)nc1SCC(O)CN1CCSCC1 (centres undefined),11,/
Cc1nn(C2CCS(=O)(=O)C2)c2nc(C3CC3)cc(C(=O)OCC#N)c12 (centres undefined),/,-1.2
Cc1ccc(Cn2nnc3c(=O)n(CC(=O)NCc4ccccc4Cl)cnc32)cc1,-0.24,-0.45
Cc1ccc(SCC(=O)N(C)C2CCS(=O)(=O)C2)cc1 (centres undefined),-0.73,2.2
COc1nc(OC)nc(N2CCN(c3ccccc3F)CC2)n1,0.035,-0.1
Cc1ccccc1N1C(=O)C(=O)/C(=C(\O)c2ccccc2)C1c1ccccc1F (centres undefined),9.4,/
COC(=O)c1sc(S(=O)(=O)N2CCCC2)c(C(=O)OC)c1C,/,0.75
COC(=O)C1=NN(C(=O)c2cccc(OC)c2)C(O)(c2ccc(Cl)cc2)C1 (centres undefined),-1,/
NS(=O)(=O)c1cc(Cl)c(Cl)c(S(N)(=O)=O)c1,0.51,/
Cc1cccn2cc(-c3ccccc3Cl)nc12,10,-0.65
CC(=O)Nc1ccc2c(c1)OCCOCCOCCOCCO2,-0.41,/
Cc1ccc(Cl)cc1NC(=O)CC1SC(N)=NC1=O (centres undefined),/,1.4
COc1cccc(-c2csc3nc[nH]c(=O)c23)c1,-0.82,-0.45
N#Cc1cnn(-c2ccccc2)c1NC(=O)CSc1nc2ccccc2s1,-0.12,-0.85
CC(C)(C)OC(=O)N1CCCC1C(=O)NNC(=O)c1ccc2nsnc2c1 (centres undefined),-1.2,/
CN(c1ccc(C(=O)N2CCN(c3ccc(F)cc3)CC2)cc1)S(C)(=O)=O,-0.18,-0.45
Cc1ccc(/C=C/C(=O)OCc2cc(Cl)cc3c2OCOC3)o1,/,0.5
COc1cc(C(=O)OCCCN=C2NS(=O)(=O)c3ccccc32)cc(OC)c1OC,0.35,/
CCN1c2ccccc2-c2nc3ccccc3n2C1c1ccco1 (centres undefined),67,1.4
CCOc1ccc2c(c1)-c1c(ssc1=Nc1cccc(Cl)c1)C(C)(C)N2,-0.42,/
CCOC(=O)c1[nH]c2ccc(F)cc2c1NC(=O)CN(CC)CC,18,/
COc1ccc(C2(C(=O)N3CCOCC3)CCCC2)cc1,-1.2,1

# Look-ups from above:
# N#Cc1cnn(-c2ccccc2)c1NC(=O)CSc1nc2ccccc2s1 @ AID504770: -0.85
# NS(=O)(=O)c1cc(Cl)c(Cl)c(S(N)(=O)=O)c1 @ CapD inh: 0.51
# COc1ccc(C2(C(=O)N3CCOCC3)CCCC2)cc1 @ CapD inh: -1.2
# CCN1c2ccccc2-c2nc3ccccc3n2C1c1ccco1 (centres undefined) @ AID504770: 1.4
# CC(C)(C)OC(=O)N1CCCC1C(=O)NNC(=O)c1ccc2nsnc2c1 (centres undefined) @ CapD inh: -1.2
# Cc1cccn2cc(-c3ccccc3Cl)nc12 @ AID504770: -0.65
# Cc1ccc(/C=C/C(=O)OCc2cc(Cl)cc3c2OCOC3)o1 @ AID504770: 0.5

# Additional compounds
SMILES,CapD inh,AID504770
O=C(Nc1nnc(CCS(=O)(=O)c2ccc(Br)cc2)s1)c1ccccc1,-0.11,/
O=C(Cc1ccccc1)NC1CCSc2ccccc21 (centres undefined),/,0.55
O=c1c2ccccc2nnn1COc1cccc(Cl)c1,/,-0.45
O=C1NCCN1CCNS(=O)(=O)c1ccc(F)cc1,0.72,0.25
O=C(Nc1c2c(nn1-c1ccc([N+](=O)[O-])cc1)CS(=O)(=O)C2)c1ccc(Br)cc1,-0.7,/
COC(=O)C1(C(=O)OC)C(C)(C)C1(C(=O)OC)C(=O)OC,0.17,0.4
N#CC1=C(N)OC2=C(C(=O)CCC2)C1Cc1ccccc1 (centres undefined),-0.2,-0.85
CCn1c(=O)n(CC(=O)N(C)Cc2ccccc2)c(=O)c2ccccc21,8.3,-1.6
CCCCC1C(=O)NC(=S)NC1=O,0.48,0.05
O=S1(=O)NC(=NCC(c2ccc(F)cc2)N2CCOCC2)c2ccccc21 (centres undefined),/,0.05
CN(C)C(=O)Oc1ccc[n+](C)c1,3.7,-0.05
O=C(CSc1n[nH]c(=O)n1-c1ccccc1)c1ccc2c(c1)OCCO2,0.41,0.2
O=C1OC(CN2CCOCC2)CN1N=Cc1ccc([N+](=O)[O-])o1 (centres undefined),0.015,/
Cc1nnc(SCC(=O)Nc2ccccc2)n1N,-0.69,-0.8
CCCn1c(=O)n(C)c(=O)c2c(SCC(=O)Nc3cccc(OC)c3)nc(C(C)C)nc21,/,1.2
CCOC(=O)C1=C(C)N=c2s/c(=C3\C(=O)N(OC(C)=O)c4ccccc43)c(=O)n2C1/C=C/c1ccccc1 (centres undefined),-0.07,/
O=C(O)c1cc(NCc2ccccc2)ccc1N1CCOCC1,2.1,0
CCOC(=O)c1c(C)oc2c1c(CN1CCN(c3ccccc3F)CC1)c(O)c1ccccc12,0.35,-1.3
CN(C)C(=O)CCc1cc(C(C)(C)C)c(O)c(C(C)(C)C)c1,0.29,-0.55
CC(NC(=O)Nc1ccc(Cl)cc1)c1nc(-c2cccnc2)n[nH]1 (centres undefined),/,0.15
C=CCOC(=O)COc1ccc2c(CC)cc(=O)oc2c1,68,1.2
